Vif A3G – inhibitors of Vif binding to APOBEC3G peptide, primary screen, biochemical, TR-FRET, GST-Vif 1-94, biotin-A3G peptide, dose response retest (AID 1117319); TR-FRET GST-Vif / biotin-A3G peptide binding; higher % means a stronger effect; test concentration not given here; strong numbers were not always called active; one-dose inhibition, %; IC50 in µM for titrated hits; 0.57% of 260,000 active;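 active means above the screen mean plus three standard deviations and confirmed in dose response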;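 further: Vif residues 1-94 fused to GST binding biotinylated APOBEC3G peptide 110-148; 0% = full assay without inhibitor and 100% = GST in place of GST-Vif; retest series ran down from 100 µM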
AF4-AF9 inh – inhibitors of human MLL-AF4/AF9 interaction; P42568; AlphaScreen, biotin-AF4 peptide binding to FLAG-AF9; inhibition, % at 10 µM; 0.47% of 350,000 active;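 active means every replicate reaching a set inhibition limit, whatever the replicate mean, cut at about 25% in these data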;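 further: 0% = plate neutral control median and 100% = total signal loss; the record names both 10 and 1 µM as test concentration; the first replicate is given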
Target sequence (P42568 whole entry, looked up): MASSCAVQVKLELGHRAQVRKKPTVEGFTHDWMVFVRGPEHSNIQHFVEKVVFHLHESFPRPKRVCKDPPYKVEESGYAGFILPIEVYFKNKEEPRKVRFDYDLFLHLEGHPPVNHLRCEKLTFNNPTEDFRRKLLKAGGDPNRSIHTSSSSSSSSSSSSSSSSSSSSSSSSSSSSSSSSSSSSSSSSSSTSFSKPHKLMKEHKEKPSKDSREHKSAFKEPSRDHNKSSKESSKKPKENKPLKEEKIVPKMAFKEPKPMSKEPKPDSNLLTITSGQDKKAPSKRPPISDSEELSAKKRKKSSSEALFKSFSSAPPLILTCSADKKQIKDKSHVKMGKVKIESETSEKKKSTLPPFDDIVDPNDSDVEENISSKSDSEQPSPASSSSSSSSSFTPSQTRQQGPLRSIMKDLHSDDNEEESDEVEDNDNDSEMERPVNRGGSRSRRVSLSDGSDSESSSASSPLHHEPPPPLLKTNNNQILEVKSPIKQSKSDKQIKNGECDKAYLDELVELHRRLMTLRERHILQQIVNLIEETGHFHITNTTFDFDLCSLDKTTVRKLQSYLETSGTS
* = called active by the depositor.

A first look (6 entries):
For Cc1cccc(NP2(=O)NCCCN2)c1 the results were Vif A3G 1% and AF4-AF9 inh -1.7.
Screening COc1ccc(/C=C/C=C2C(=O)NC(=S)NC2=O)cc1 returned Vif A3G 1% and AF4-AF9 inh -4.6.
`CSc1nc(Cl)c(Br)c(N2CC2)n1` gave Vif A3G 1% and AF4-AF9 inh 2.2.
Screening CC1([N+](=O)[O-])COP(=O)(Nc2ccccc2F)OC1 (stereo not given) returned Vif A3G -10% and AF4-AF9 inh 1.5.
O=S(=O)(c1cccc2ccccc12)N1Cc2ccccc2-n2nncc2C1 was read as Vif A3G 2% and AF4-AF9 inh -3.3.
Screening CC1C=CCCC12C(=O)NC(=O)NC2=O (stereo not given) returned Vif A3G -1% and AF4-AF9 inh -4.4.

The list itself (from the top)
For Cc1cccc(NP2(=O)NCCCN2)c1 the results were Vif A3G 1% and AF4-AF9 inh -1.7.
Screening COc1ccc(/C=C/C=C2C(=O)NC(=S)NC2=O)cc1 returned Vif A3G 1% and AF4-AF9 inh -4.6.
`CSc1nc(Cl)c(Br)c(N2CC2)n1` gave Vif A3G 1% and AF4-AF9 inh 2.2.
Screening CC1([N+](=O)[O-])COP(=O)(Nc2ccccc2F)OC1 (stereo not given) returned Vif A3G -10% and AF4-AF9 inh 1.5.
O=S(=O)(c1cccc2ccccc12)N1Cc2ccccc2-n2nncc2C1 was read as Vif A3G 2% and AF4-AF9 inh -3.3.
Screening CC1C=CCCC12C(=O)NC(=O)NC2=O (stereo not given) returned Vif A3G -1% and AF4-AF9 inh -4.4.
For CC1([N+](=O)[O-])COP(=O)(Nc2ccc(F)cc2)OC1 (stereo not given) the results were Vif A3G -8% and AF4-AF9 inh -2.3.
For CCOC(=O)C1(c2ccccc2)CCN(CCC(=O)Nc2cccc(Br)c2)CC1 the results were Vif A3G -2% and AF4-AF9 inh 4.1.
`CC[C@@H](O)C[C@H]1CCC[C@@]2(C[C@@H]3OC(=O)/C=C/[C@@](C)(O)[C@@H](O)[C@H](C)[C@@H](O)[C@H](OC4CCC(N(C)C)C(C)O4)[C@@H](O)[C@](C)(O)CCCCC/C=C/[C@@H]4CC(C)(C)O[C@@]4(O)C[C@H](O2)[C@H]3C)O1` (stereo not given in full) gave Vif A3G 0% and AF4-AF9 inh 4.7.
Screening ClCCN(CCCl)c1ccc(C=NNc2ncccn2)cc1 returned Vif A3G -2% and AF4-AF9 inh 1.7.
`O=C1NC(=S)NC(=O)C1=Cc1ccc(OCc2ccccc2)cc1` gave Vif A3G -2% and AF4-AF9 inh 1.9.
CC(=O)NC1=C(N2CC2C)C(=O)C(NC(C)=O)=C(N2CC2C)C1=O (stereo not given) was read as Vif A3G -3% and AF4-AF9 inh -5.3.
CC1([N+](=O)[O-])COP(=O)(Nc2cccc(Cl)c2)OC1 (stereo not given) was read as Vif A3G -4% and AF4-AF9 inh 0.6.
Screening CCCOC(=O)C1C2CCC(O2)C1C(=O)O (stereo not given) returned Vif A3G -2% and AF4-AF9 inh -2.3.
Screening CN1OC[C@@H]2CN[C@H](c3ccc(Br)cc3)C[C@@H]21 returned Vif A3G -6% and AF4-AF9 inh 0.0.

As a working copy, some entries already given:
CC1([N+](=O)[O-])COP(=O)(Nc2cccc(Cl)c2)OC1 (stereo not given) was read as Vif A3G -4% and AF4-AF9 inh 0.6.
Screening CCCOC(=O)C1C2CCC(O2)C1C(=O)O (stereo not given) returned Vif A3G -2% and AF4-AF9 inh -2.3.
Screening CN1OC[C@@H]2CN[C@H](c3ccc(Br)cc3)C[C@@H]21 returned Vif A3G -6% and AF4-AF9 inh 0.0.

Next compounds follow:
Screening COc1ccc(NP2(=O)OCC(C)(N)CO2)cc1 (stereo not given) returned Vif A3G -9% and AF4-AF9 inh -1.3.
N#Cc1ccc(NC(=S)N2Cc3ccccc3-n3nncc3C2)cc1 was read as Vif A3G -3% and AF4-AF9 inh 1.8.
Screening O=P(O)(Oc1ccccc1)c1ccccc1 returned Vif A3G -7% and AF4-AF9 inh -2.2.
For CCC1(CC(C)C)C(=O)NC(=S)NC1=O the results were Vif A3G -2% and AF4-AF9 inh 5.0.
CC(=O)N1Cc2cnnn2-c2ccccc2C1(C#N)Cc1ccccc1 (stereo not given) was read as Vif A3G -8% and AF4-AF9 inh -5.2.
Screening CC(=O)OC1CC(OC2C(O)CC(OC3C(O)CC(OC4CCC5(C)C(CCC6C5CCC5(C)C(C7=CC(=O)OC7)C(O)CC65O)C4)OC3C)OC2C)OC(C)C1OC1OC(CO)C(O)C(O)C1O (stereo not given) returned Vif A3G 2% and AF4-AF9 inh -2.3.
For CC(=O)OC(C)(C)/C=C/C(=O)C(C)(O)C1C(O)CC2(C)C3CC=C4C(CC(O)C(=O)C4(C)C)C3(C)C(=O)CC12C (stereo not given) the results were Vif A3G 15% and AF4-AF9 inh -2.1.
For CC(O)C1C=CC=CC(=O)OC2CC3OC4C5OC5(C)C(O)CC4(COC(=O)C(O)C(C)CCO1)C2(C)C31CO1 (stereo not given) the results were Vif A3G -6% and AF4-AF9 inh -2.7.
`Cc1ccc(C(=O)N2CC2C)cc1` (stereo not given) gave Vif A3G 8% and AF4-AF9 inh -1.7.
CS(=O)(=O)c1ccc(C2=C(CNC(=O)c3ccc([N+](=O)[O-])cc3)[C@H]3CC[C@@H](C2)N3Cc2ccccc2)cc1 was read as Vif A3G 7% and AF4-AF9 inh 9.6.
Screening O=C(c1ccco1)N1Cc2ccccc2-n2nncc2C1 returned Vif A3G 2% and AF4-AF9 inh 1.3.
For CN1C(=O)C(Cc2ccccc2)C(=O)N(C)C1=O the results were Vif A3G 1% and AF4-AF9 inh -2.1.
N#Cc1ncc(N=Cc2ccc(N(CCCl)CCCl)cc2)s1 was read as Vif A3G 10% and AF4-AF9 inh -1.2.
For CCOC(=O)CC1c2ccccc2-n2nncc2CN1CC1CCCCC1 (stereo not given) the results were Vif A3G -11% and AF4-AF9 inh 1.9.
CS(=O)(=O)c1ccc(C2=C(CNC(=O)c3cccnc3)[C@H]3CC[C@@H](C2)N3Cc2ccco2)cc1 was read as Vif A3G 4% and AF4-AF9 inh 1.0.

Sorted by count of non-hydrogen atoms (ascending): some entries from above.
For CN1C(=O)C(Cc2ccccc2)C(=O)N(C)C1=O the results were Vif A3G 1% and AF4-AF9 inh -2.1.
CS(=O)(=O)c1ccc(C2=C(CNC(=O)c3ccc([N+](=O)[O-])cc3)[C@H]3CC[C@@H](C2)N3Cc2ccccc2)cc1 was read as Vif A3G 7% and AF4-AF9 inh 9.6.
Screening CC(=O)OC1CC(OC2C(O)CC(OC3C(O)CC(OC4CCC5(C)C(CCC6C5CCC5(C)C(C7=CC(=O)OC7)C(O)CC65O)C4)OC3C)OC2C)OC(C)C1OC1OC(CO)C(O)C(O)C1O (stereo not given) returned Vif A3G 2% and AF4-AF9 inh -2.3.

Additional results:
C[C@]12CCC3C(CC[C@H]4C[C@H](O)CC[C@]34C)C1C[C@H](O)[C@H]2O (stereo not given in full) was read as Vif A3G -4% and AF4-AF9 inh 0.4.
For CCOc1cc(C=C2C(=O)NC(=S)NC2=O)ccc1O the results were Vif A3G 0% and AF4-AF9 inh -3.7.
For CCC1(Oc2ccccc2)C(=O)NC(=O)NC1=O the results were Vif A3G -9% and AF4-AF9 inh -25.
`CS(=O)(=O)c1ccc(C2=C(CNC(=O)c3nccs3)[C@H]3CC[C@@H](C2)N3CCOc2ccccc2)cc1` gave Vif A3G 7% and AF4-AF9 inh -24.
CN1CN(c2ccccc2)C2(CCN(CCCSc3ccccc3NC(=O)/C=C/c3ccccc3)CC2)C1=O was read as Vif A3G -1% and AF4-AF9 inh 12.
For Cc1ccc2c(c1)NP(=S)(Oc1ccccc1)N2 (stereo not given) the results were Vif A3G 2% and AF4-AF9 inh 12.
`NC(=O)c1c(Br)n(C2OC(CO)C(O)C2O)c2ncnc(N)c12` (stereo not given) gave Vif A3G -6% and AF4-AF9 inh -0.2.
CC1C(=O)OC2CCN3CC4OC4(COC(=O)C(C)(O)C1(C)O)C23 (stereo not given) was read as Vif A3G -3% and AF4-AF9 inh -2.8.
`Oc1c(Br)cc(-c2ccccc2)cc1Br` gave Vif A3G 3% and AF4-AF9 inh -3.6.
Screening Cc1ccc2n1Cc1cnnn1-c1ccccc1-2 returned Vif A3G -3% and AF4-AF9 inh 7.4.
CCC1(CCC(C)C)C(=O)NC(=S)NC1=O was read as Vif A3G -3% and AF4-AF9 inh -0.9.
Screening O=C(NC1CCCCC1)N1Cc2ccccc2-n2nncc2C1 returned Vif A3G -7% and AF4-AF9 inh -2.6.
`COc1ccccc1CN1CCNCC1` gave Vif A3G -5% and AF4-AF9 inh -3.0.
Screening COc1cc2c(cc1OC)C13CCN4CC5CCOC6CC(=O)N2C1C6C5CC43 (stereo not given) returned Vif A3G -5% and AF4-AF9 inh 4.0.
N#CC1c2ccccc2C=CN1C(=O)c1ccc(N(CCCl)CCCl)cc1 (stereo not given) was read as Vif A3G -1% and AF4-AF9 inh -0.8.
`O=C(Nc1ccccc1)N1Cc2ccccc2-n2nncc2C1` gave Vif A3G -5% and AF4-AF9 inh -11.
Screening CS(=O)(=O)c1ccc(C2=C(CNC(=O)c3cccs3)[C@H]3CC[C@@H](C2)N3Cc2ccco2)cc1 returned Vif A3G -3% and AF4-AF9 inh -0.2.
O=[N+]([O-])c1oc2ccc3ccccc3c2c1CCO was read as Vif A3G 3% and AF4-AF9 inh 1.6.
Cc1nn(CC(C)C)c(Cl)c1C(=O)NC1CCCCC1 was read as Vif A3G -1% and AF4-AF9 inh 0.2.
For CCC1CN1P(=O)(N1CCCC1)N1CC1CC (stereo not given) the results were Vif A3G -3% and AF4-AF9 inh 3.6.
Screening CC1NC(=O)NC(=O)C1Br (stereo not given) returned Vif A3G -5% and AF4-AF9 inh -0.8.
Screening S=P(NCCSCc1ccccc1)(N1CC1)N1CC1 returned Vif A3G -2% and AF4-AF9 inh 0.8.
`C1CN(P2(N3CC3)=NP(N3CC3)(N3CC3)=NP(N3CC3)(N3CC3)=N2)CCO1` (stereo not given) gave Vif A3G -1% and AF4-AF9 inh -1.8.
Screening O=C(CF)N(O)c1ccc(C=Cc2ccccc2)cc1 returned Vif A3G -7% and AF4-AF9 inh 5.6.
`CCOC(=O)c1cccc(C2=C(CNC(=O)c3ocnc3C)[C@H]3CC[C@@H](C2)N3Cc2ccccc2)c1` gave Vif A3G 8% and AF4-AF9 inh 1.8.
`CC(=O)Nc1ccc(S(=O)(=O)N2Cc3ccccc3-n3nncc3C2)cc1` gave Vif A3G -2% and AF4-AF9 inh -1.3.
Screening CC12CCC3C(CC=C4CC(O)CCC43C)C1CC(=CN1CCOCC1)C2=O (stereo not given) returned Vif A3G -4% and AF4-AF9 inh -2.2.
`O=C1NC(=O)C(Nc2ccc(Cl)c(Cl)c2)C(=O)N1` gave Vif A3G -13% and AF4-AF9 inh -1.3.
N#Cc1cn(C2OC(CO)C(O)C2O)c2ncnc(N)c12 (stereo not given) was read as Vif A3G -9% and AF4-AF9 inh -2.4.
C=CCNC(=S)N1Cc2ccccc2-n2nncc2C1 was read as Vif A3G 1% and AF4-AF9 inh 0.2.
For O=C(Nc1ccc(Cl)cc1)N1CC1 the results were Vif A3G -11% and AF4-AF9 inh -1.4.
COC(=O)C1=C(c2ccc(OCc3ccccc3)c(F)c2)C[C@@H]2CC[C@H]1N2C was read as Vif A3G -8% and AF4-AF9 inh 5.4.
Screening CC(C)c1ccc(C(c2c(O)c3ccccc3oc2=O)c2c(O)c3ccccc3oc2=O)cc1 returned Vif A3G 6% and AF4-AF9 inh -3.5.
For CC1CC2CC(=O)CCC2(C)C2CCC3(C)C(O)CCC3C12 (stereo not given) the results were Vif A3G -4% and AF4-AF9 inh 3.5.
Nc1cccc(SC2CC(=O)N(c3ccc(Cl)cc3C(=O)c3ccccc3)C2=O)c1 (stereo not given) was read as Vif A3G 1% and AF4-AF9 inh -1.4.
CCOC(=O)c1cc2c(cn1)[C@H](CCO)NC2 was read as Vif A3G -5% and AF4-AF9 inh -1.0.
Screening CC12CCC3C(CCCC4CC(=O)CCC43C)C1CCC2O (stereo not given) returned Vif A3G -2% and AF4-AF9 inh -11.
Screening O=C(O)c1nn(Cc2ccc(Cl)cc2)c2ccccc12 returned Vif A3G -1% and AF4-AF9 inh -0.5.
`Nc1ccc(CC2=NCCN2)cc1` gave Vif A3G -4% and AF4-AF9 inh 6.9.
`O=P(Oc1ccccc1)(Oc1ccccc1)N1CCOCC1` gave Vif A3G -8% and AF4-AF9 inh -3.8.
`COC(=O)Nc1nc2ccccc2[nH]1` gave Vif A3G -4% and AF4-AF9 inh -1.7.
For OC(CNCc1ccccc1)c1ccc(Cl)cc1 (stereo not given) the results were Vif A3G -6% and AF4-AF9 inh 2.3.
Screening CCOC(=O)C1(c2ccccc2)CCN(CC(O)c2ccc(NC(C)=O)cc2)CC1 (stereo not given) returned Vif A3G -8% and AF4-AF9 inh 3.1.
Screening Cc1cc(C(=O)OCC(=O)Nc2c(F)cccc2F)c(C)n1C1CC1 returned Vif A3G -6% and AF4-AF9 inh -0.9.
For COc1ccc(N2C(=O)C(=O)N(c3ccc(OC)cc3)P2(=O)N(CCCl)CCCl)cc1 the results were Vif A3G 3% and AF4-AF9 inh -1.6.
Screening Cn1c(=O)c2c(nc(-c3ccc(N(CCCl)CCCl)cc3)n2C)n(C)c1=O returned Vif A3G -9% and AF4-AF9 inh 2.5.
For COc1ccccc1C=C1C(=O)NC(=S)NC1=O the results were Vif A3G 3% and AF4-AF9 inh -13.
c1ccc2c(c1)cc1ccc3cccc4ccc2c1c34 was read as Vif A3G -4% and AF4-AF9 inh -0.4.
For c1cnc(OCCN2CC2)cn1 the results were Vif A3G -1% and AF4-AF9 inh -0.2.
Screening COCCCNP1(=O)OCC(C)([N+](=O)[O-])CO1 (stereo not given) returned Vif A3G -1% and AF4-AF9 inh 1.1.
For CC1(C)CCCN1CCC(C(N)=O)(c1ccccc1)c1ccccc1 the results were Vif A3G -3% and AF4-AF9 inh -2.1.

High-throughput results deposited in PubChem by several laboratories.

Only part of the results is shown; rates above refer to the full screens.
